Compound activity from PubChem BioAssay.
AF4-AF9 inh: inhibitors of AF4 peptide binding to AF9, primary screen, biochemical, AlphaScreen, biotin-AF4 peptide, FLAG-AF9, single point; Protein AF-9 (Homo sapiens), P42568; inhibition, % at 10 µM; actives 0.47% (n = 350,000);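 active = every replicate reaching a set inhibition limit, whatever the replicate mean, cut at about 25% in these data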;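 note: 0% = plate neutral control median and 100% = total signal loss; the record names both 10 and 1 µM as test concentration; the first replicate is given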
Target sequence (P42568 whole entry, looked up): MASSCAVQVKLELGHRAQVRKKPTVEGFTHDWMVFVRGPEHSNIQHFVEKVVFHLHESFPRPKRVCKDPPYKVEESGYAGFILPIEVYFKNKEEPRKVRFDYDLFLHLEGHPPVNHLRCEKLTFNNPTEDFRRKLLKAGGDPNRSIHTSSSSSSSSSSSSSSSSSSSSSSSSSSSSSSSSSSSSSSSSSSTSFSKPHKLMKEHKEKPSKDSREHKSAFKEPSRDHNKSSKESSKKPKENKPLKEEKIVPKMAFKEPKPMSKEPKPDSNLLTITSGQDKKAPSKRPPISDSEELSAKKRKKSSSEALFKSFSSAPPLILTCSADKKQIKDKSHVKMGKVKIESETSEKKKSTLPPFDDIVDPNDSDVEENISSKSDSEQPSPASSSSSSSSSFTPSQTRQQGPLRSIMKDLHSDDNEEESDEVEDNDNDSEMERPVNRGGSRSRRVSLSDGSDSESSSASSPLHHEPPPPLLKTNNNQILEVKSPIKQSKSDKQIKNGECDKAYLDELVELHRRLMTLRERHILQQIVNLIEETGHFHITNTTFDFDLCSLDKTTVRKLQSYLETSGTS
Ecoli growth: E. coli growth inhibition, primary screen, OD600 | actives 0.21% (n = 330,000) | OD600 absorbance (concentration not given with the values) | AID 1053175, 2014 | Escherichia coli growth, 23 h; stronger effect = lower value;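 active = OD600 absorbance below the run mean of sample wells minus 3.6 SD, in any replicate, cut at about 0.56 in these data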;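 note: stock transfer was 300 nL into about 60 µL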
UCH37 DUB inh: inhibitors of human UCH37 deubiquitinase, primary screen, biochemical, Ub-AMC cleavage, fluorescence | Ubiquitin carboxyl-terminal hydrolase isozyme L5 (Homo sapiens), Q9Y5K5 | purified proteasome/UCH37 | inhibition, % (test concentration not listed) | actives 0.33% (n = 330,000) | AID 588478, 2011;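 active = mean of two replicates above 20%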;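 note: 0% = compound-free wells with enzyme and 100% = wells lacking proteasome; stock transfer was 100 nL into about 20 µL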
Target sequence (Q9Y5K5 whole entry, looked up): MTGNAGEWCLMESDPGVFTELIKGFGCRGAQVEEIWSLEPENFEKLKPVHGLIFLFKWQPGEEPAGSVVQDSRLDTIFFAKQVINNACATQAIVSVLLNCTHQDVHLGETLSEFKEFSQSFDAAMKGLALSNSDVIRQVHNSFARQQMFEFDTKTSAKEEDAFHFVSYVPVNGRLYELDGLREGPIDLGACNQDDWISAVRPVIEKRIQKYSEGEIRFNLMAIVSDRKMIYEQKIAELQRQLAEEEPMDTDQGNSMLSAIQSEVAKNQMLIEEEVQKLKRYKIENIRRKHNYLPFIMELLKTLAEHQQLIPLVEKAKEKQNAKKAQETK
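Test system – human UCH37 enzyme supplied as purified proteasome complex · Incubation – 30 min preincubation with enzyme, 25 min cleavage at room temperature · Detection – AMC fluorescence from Ub-AMC cleavage, excitation 355 nm, emission 460 nm · Benchmarks – no-proteasome wells (full inhibition) and compound-free wells (no inhibition)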
T cruzi inh: inhibitors of intracellular T. cruzi growth, primary screen, luminescence, NIH3T3 host cells; T. cruzi beta-gal in NIH3T3, 90 h; inhibition, % (concentration not given with the values); actives 1.4% (n = 300,000); AID 1885, 2009;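 active = mean inhibition across valid replicates above about 55%, limit read from the data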;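 note: signal also drops with host cell toxicity which is not excluded here; 0% = plate median of DMSO wells and 100% = zero luminescence signal; higher percent means less beta-gal luminescence so fewer parasites; stock transfer was 50 nL into about 50 µL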
rRNA inh HTS: reduced GFP signal of wild-type E. coli, primary screen, bacterial rRNA inhibitor project, GFP/RFP fluorescence, OD600, single point | actives 1.6% (n = 350,000) | GFP signal change (wild-type ribosome), % (test concentration not listed) | E. coli WT GFP vs humanized-ribosome RFP mutants, 24 h; stronger effect = lower value; DMSO median 0, no signal -100;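 active = significant combined selectivity score with lowered wild-type GFP, culture density cut under 30%, mutant RFP and density less affected; inactive = any of these conditions unmet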; note: one replicate is shown; some compounds called inactive have numbers as strong as hits
Bfl-1 A1 inh: caspase 3/7 activation in MEF A1-2A-BIM cells, primary screen, A1 inhibitor project, cell-based, luminescence, HTS; Caspase-Glo 3/7 luminescence, 3 h; percent of clofoctol response, vehicle zero; actives 0.066% (n = 330,000); caspase activation, % (no concentration beside the values);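 active = over half of replicate activation scores above 10%, or exactly half above 10 with the replicate mean above 10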;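 note: wells of about 30 µL received 50 nL stock; many hits fall short of the cut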
Beta apoptosis: inhibitors of cytokine-induced beta cell apoptosis, primary screen, luminescence; actives 0.8% (n = 300,000); INS-1E cytokine-induced death, ATP luminescence, 48 h; percent of positive-control rescue, neutral wells zero; protection from apoptosis, % (test concentration not listed); AID 435005, 2010;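 active = all replicates at 75% or more, or half of them and the mean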;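 note: 0% = cytokine-treated negative control wells and 100% = positive control rescue; higher means more ATP so stronger rescue from cytokine killing; wells of about 40 µL received 100 nL stock; the first replicate is given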
FGF22 binding: binders of human FGF22 protein, primary screen, FGF22 synaptogenesis inhibitor project, biophysical, thermal shift, single point. Fibroblast growth factor 22 (Homo sapiens), Q9HCT0. recombinant FGF22 thermal shift, SYPRO orange fluorescence; percent of sucrose octasulfate shift, DMSO zero. calls only at 9.99 µM. actives 1.5% (n = 340,000);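 active = melting point raised past a set limit in the mean and every replicate; three in four hits are not shown here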
Target sequence (Q9HCT0 whole entry, looked up): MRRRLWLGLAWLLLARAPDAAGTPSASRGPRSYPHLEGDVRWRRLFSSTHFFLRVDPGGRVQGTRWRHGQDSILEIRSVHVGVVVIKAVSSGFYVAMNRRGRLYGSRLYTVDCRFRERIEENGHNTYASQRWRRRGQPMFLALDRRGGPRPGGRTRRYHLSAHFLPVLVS
rRNA inh HTS OD600: further read-out of rRNA inh HTS, marked with its call; OD600 change, %; measured here: OD600 growth;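 optical density of the mix in the first replicate; 0 = DMSO median and -100 = no signal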
rRNA inh HTS RFP: second read-out of rRNA inh HTS, no call of its own (marks repeat the call); RFP signal change, %; measured here: RFP humanized mutant strains;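 first replicate; 0 = DMSO median and -100 = no signal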
* = called active by the depositor; i = inactive; . = no result given; & = joins results of further samples. Some of the compounds tested; the hit share may differ from the screen's.

SMILES	AF4-AF9 inh	Ecoli growth	UCH37 DUB inh	T cruzi inh	rRNA inh HTS	rRNA inh HTS OD600	rRNA inh HTS RFP	Bfl-1 A1 inh	Beta apoptosis	FGF22 binding
Cc1ccc2nc(-c3ccc(NC(=O)COC(=O)c4ccc(=O)[nH]c4)cc3)sc2c1	2.6	0.67	-227	-15	4	0	4.8	-4.7	-5	i
C=CC[C@@H](CC(=O)N[C@@H](CO)Cc1ccccc1)C(=O)N[C@@H](C)COC(=O)[C@@H](CC=C)Cc1ccc(F)cc1	0.9	.	2.0	.	-5	-7	-8.7	0.8	-12	i
CCOc1ccc(CN(C)CC(=O)Nc2ccc(N3CCOCC3)cc2)cc1OC	-18	0.69	0.2	10	6	4	-1.5	-1.0	2	i
O=C(NC(=S)Nc1cc(S(=O)(=O)N2CCOCC2)ccc1N1CCOCC1)c1ccco1	3.0	0.66	3.0	13	3	-8	16	-1.1	2	i
Cc1cc(-c2ccccc2)nc(N(C)NC(=O)C2CC2)c1S(C)(=O)=O	-2.5	0.68	5.1	2	7	10	1.1	0.5	-1	i
CC(C)(C)OC(=O)[C@H](Cc1ccccc1)NC(=O)c1[nH]cnc1C(=O)Nc1cccc(Cl)c1	6.1	.	.	40	21	12	5.9	-2.7	22	i
CC1CN(C(=O)c2ccc(NS(=O)(=O)c3ccc(F)cc3)cc2)CC(C)O1 (stereo not given)	-1.1	0.72	-1.2	-6	5	1	0.1	0.3	-5	i
COc1c(F)cc2[nH]c3c(c2c1F)CCNC3=O	-2.1	0.66	1.0	-3	-20	-17	-7.4	0.4	-5	i
O=C(CCc1ccc(Oc2cc([N+](=O)[O-])cc([N+](=O)[O-])c2)cc1)N1CCCCCC1	6.0	0.65	5.0	68*	-1	-8	-6.1	-0.5	10	i
NC(=O)NCCc1ccccc1	-0.4&-3.8	0.7	2.4	3	9	7	3.7	0.0	-3	i
CC(=O)Nc1ccc(S(=O)(=O)N(C)CC(=O)N/N=C/c2ccncc2)cc1	-1.4	.	.	-13	4	4	-1.2	-0.7	9	i
COC(=O)c1c(NC(=O)C2CC(=O)NN2Cc2ccccc2)sc(C)c1C (stereo not given)	.	0.69	3.2	17	.	.	.	0.3	2	.
CC(=O)Oc1c(C)c(OC(C)=O)c2c(c1C(C)=O)OC1CC(=O)C(C(C)=O)=C(O)C21C (stereo not given)	4.4	0.71	0.5	1	-3	-2	-2.8	0.3	0	i
CC(C)(C)NC(=O)c1cccc(NC(=O)Cc2cccs2)c1	-0.5	0.69	3.6	-24	-3	-9	-1.8	1.1	0	i
COc1ccc(N2CCN(C(=O)c3ccccc3NS(=O)(=O)c3ccc(C)cc3)CC2)cc1	3.5	0.7	3.4	1	-10	-15	2.2	0.5	9	i
NS(=O)(=O)c1ccc(CCNC(=O)c2ccncc2)cc1	3.1	0.66	1.4	-7	5	12	-0.3	-0.8	12	i
COC(=O)C1=C(N)Oc2cc(C)[nH]c(=O)c2C1c1ccc(Cl)cc1 (stereo not given)	5.3	0.7	0.8	0	-4	-7	-4.7	0.1	-2	i
COc1ccc(NS(=O)(=O)c2c(C)cc(C)cc2C)cn1	-3.9	0.68	2.4	16	7	-7	-0.1	1.8	.	i
COc1cc(CN2CCNC(=O)C2CC(=O)NC2CCCCC2)cc(OC)c1 (stereo not given)	1.7	0.69	-3.6	-11	11	2	1.1	-0.1	-7	i
CCN(CC)C(=O)C(=O)N/N=C/c1ccc(F)cc1	-1.3	.	.	-6	.	.	.	-0.3	3	.
CC(C)CCN1CCN(Cc2coc3ccccc3c2=O)CC1CCO (stereo not given)	-13	0.71	4.7	8	3	5	-2.7	-0.7	-2	i
COc1ccccc1-n1c(C)nc2cc(C(=O)NCCN3CCOCC3)ccc21	-4.4	0.72	2.8	2	1	8	5.0	1.7	-3	.
Cc1ccc(NC(=S)NC(=O)c2ccc(Br)o2)c(C)c1	0.4	0.74	0.6	24	10	14	-0.4	-0.3	1	i
CCN(CC)C(=O)CN(C#N)c1nc(Cl)nc(N(C)C)n1	2.4	0.67	2.6	-13	9	11	4.2	0.6	-7	.
Cc1oc2c(CN3CCOCC3)c(O)ccc2c(=O)c1-c1ccccc1	2.4	0.62	-400	1	-24*	0.3*	-4.5*	1.1	-6	i

Whole records from above:
Record of CCN(CC)C(=O)C(=O)N/N=C/c1ccc(F)cc1 : AF4-AF9 inh: -1.3; Ecoli growth: .; UCH37 DUB inh: .; T cruzi inh: -6; rRNA inh HTS: .; rRNA inh HTS OD600: .; rRNA inh HTS RFP: .; Bfl-1 A1 inh: -0.3; Beta apoptosis: 3; FGF22 binding: .
Record of Cc1oc2c(CN3CCOCC3)c(O)ccc2c(=O)c1-c1ccccc1 : AF4-AF9 inh: 2.4; Ecoli growth: 0.62; UCH37 DUB inh: -400; T cruzi inh: 1; rRNA inh HTS: -24*; rRNA inh HTS OD600: 0.3*; rRNA inh HTS RFP: -4.5*; Bfl-1 A1 inh: 1.1; Beta apoptosis: -6; FGF22 binding: i

Continued:
SMILES	AF4-AF9 inh	Ecoli growth	UCH37 DUB inh	T cruzi inh	rRNA inh HTS	rRNA inh HTS OD600	rRNA inh HTS RFP	Bfl-1 A1 inh	Beta apoptosis	FGF22 binding
C=CCC1NS(=O)(=O)OC2CCCCC12 (stereo not given)	3.2	0.64	-0.3	-26	12	31	4.4	0.0	0	i
O=C(Cn1cc(C(F)(F)F)ccc1=O)Nc1ccc2c(c1)OCCO2	0.4	0.64	-0.2	.	9	17	-2.6	1.5	0	i
Cc1cc(C)cc(NC(=O)C2CCCN(c3nc(C)cc(C)n3)C2)c1 (stereo not given)	-7.6	0.71	2.8	-4	14	6	-6.5	0.7	0	i
CC1(C)CC(=O)c2sc(NC(=O)C3COc4ccccc4O3)nc2C1 (stereo not given)	-4.5	0.76	7.0	-4	-7	-40	-0.7	-1.5	5	i
COc1cccc(C2CC(=O)N3CN(c4cccc(Cl)c4C)CSC3=C2C#N)c1OC (stereo not given)	1.8	0.74	0.7	5	9	3	-11	1.1	-6	i
COc1cccc(-c2c(-c3cc(OC)cc(OC)c3)n(C)c3ccc(-c4ccc5[nH]ccc5c4)cc23)c1	.	0.67	-8.9	.	.	.	.	0.7	-3	.
Cc1noc2ncnc(Sc3ccccc3Cl)c12	.	0.74	3.1	45	.	.	.	0.3	-13	.
CCOC(=O)C1=NNC(C(=O)OCC)C1C(=O)OCC (stereo not given)	-5.0	0.67	-3.5	.	7	13	-2.4	.	.	i
COc1ccccc1NC(=O)c1ccc(NS(=O)(=O)c2ccc(F)c(F)c2F)cc1	.	0.69	2.9	-21	.	.	.	0.1	11	.
Cc1cc(C(=O)NC2CCC(O)CC2)c(C)o1 (stereo not given)	-2.6	0.71	0.7	.	4	13	-0.9	0.4	0	i
Nc1nnnn1/N=C/c1cc(Cl)cc(Cl)c1O	-0.2	.	.	8	-13	-1	0.8	0.5	-4	i
O=C(Cn1c(-c2cscn2)nc2ccccc21)Nc1ccc2ccccc2c1	0.0	0.69	1.8	26	-18	-13	-5.9	-1.8	-3	i
O=C(Nc1ccc(F)cc1)Nc1ccc(Cl)cn1	.	0.68	1.0	-37	.	.	.	-1.3	4	.
COc1cccc(NC(=S)N(CCCN2CCOCC2)C(C)c2cc3ccccc3o2)c1 (stereo not given)	3.0	0.69	6.1	18	-1	2	-3.5	-0.5	-9	i
C=CCc1cc(OC)ccc1OCCN1CC(C)OC(C)C1 (stereo not given)	3.3	0.73	2.8	-3	-8	-10	-1.2	0.9	.	i
COc1cccc(OC)c1C(=O)NC(=S)Nc1ccc2c(c1)C(=O)N(C)C2=O	6.1	0.67	1.5	0	13	-3	2.6	1.3	.	i
CCn1cc(C(=O)NCCOC)c(=O)c2ccc(C)nc21	.	0.71	2.5	-2	-14	7	0.3	-0.8	-15	.
Cc1ccc(-c2cc(-c3ccco3)c3c(N)c(C(=O)NN)oc3n2)cc1	2.0	0.64	4.8	25	7	3	-1.7	-0.1	.	i
Cc1ccc(C(O)(C(=O)NNS(=O)(=O)c2ccc(C)cc2)c2ccc(C)cc2)cc1	.	0.69	0.1	2	.	.	.	-1.0	0	.
Cc1ccc(C)c(S(=O)(=O)N/N=C/c2cccnc2)c1	2.5	.	.	-3	7	-1	-0.4	0.6	-4	i
Cc1ccccc1CNC(=O)c1cc2ccccc2o1	4.0	.	.	-2	4	-6	-1.6	-1.4	-14	i
Cc1ccccc1N1CC(C(=O)Nc2ccc3c(c2)OCO3)CC1=O (stereo not given)	1.3	0.65	2.9	-8	1	11	-0.1	0.9	0	i
CCCc1cc(=O)oc2c(CN3CCN(C)CC3)c(O)c(Cl)cc12	.	0.71	i	-10	.	.	.	0.0	-5	.
Cc1ccc(CN(C)C(=O)CN2C(=O)NC(c3ccccc3)(c3ccccc3)C2=O)c(C)c1	4.1	0.66	2.6	.	-10	-8	-0.4	-0.8	4	i
O=C(/C=C/c1ccc(Cl)cc1)N1CCN(c2ccc(Cl)cc2[N+](=O)[O-])CC1	.	0.75	1.1	15	.	.	.	-0.3	-2	.
O=[N+]([O-])C(=C1NCCN1)C(Cl)=C(Cl)Cl	2.6	0.67	6.8	-1	14	13	-9.3	-0.6	-4	i
Cc1nc2ccc(S(=O)(=O)NCC(=O)N(C)Cc3ccco3)cc2s1	.	0.68	1.7	-2	.	.	.	-0.3	4	.

Seven compounds drawn at random from those above:
SMILES	AF4-AF9 inh	Ecoli growth	UCH37 DUB inh	T cruzi inh	rRNA inh HTS	rRNA inh HTS OD600	rRNA inh HTS RFP	Bfl-1 A1 inh	Beta apoptosis	FGF22 binding
CC1(C)CC(=O)c2sc(NC(=O)C3COc4ccccc4O3)nc2C1 (stereo not given)	-4.5	0.76	7.0	-4	-7	-40	-0.7	-1.5	5	i
Nc1nnnn1/N=C/c1cc(Cl)cc(Cl)c1O	-0.2	.	.	8	-13	-1	0.8	0.5	-4	i
CCOC(=O)C1=NNC(C(=O)OCC)C1C(=O)OCC (stereo not given)	-5.0	0.67	-3.5	.	7	13	-2.4	.	.	i
COc1ccccc1NC(=O)c1ccc(NS(=O)(=O)c2ccc(F)c(F)c2F)cc1	.	0.69	2.9	-21	.	.	.	0.1	11	.
COc1cccc(C2CC(=O)N3CN(c4cccc(Cl)c4C)CSC3=C2C#N)c1OC (stereo not given)	1.8	0.74	0.7	5	9	3	-11	1.1	-6	i
CCCc1cc(=O)oc2c(CN3CCN(C)CC3)c(O)c(Cl)cc12	.	0.71	i	-10	.	.	.	0.0	-5	.
COc1cccc(-c2c(-c3cc(OC)cc(OC)c3)n(C)c3ccc(-c4ccc5[nH]ccc5c4)cc23)c1	.	0.67	-8.9	.	.	.	.	0.7	-3	.
